# SARS PLpro yeast: inhibitors of SARS-CoV papain-like protease in yeast. Potency, µM (titrated, usually from 32.9 µM), without a hit: top-dose activity, positive = growth rescue. S. cerevisiae expressing SARS-CoV PLpro, growth rescue; control for the full effect not named in the record. AID 485353. 0.19% of 330,000 active; active means well fitted rising curve with a large enough effect; inconclusive means small, poorly fitted or top-dose-only effect; inactive means no such curve, though single readings can be large or run the other way; also: 0% is about no effect; nearly all actives have a fitted effect of over 55% in size; growth read by luminescence after 48 h
# 2A StopGo: lowers the luciferase signal of an FMDV 2A StopGo reporter | human cells with a luciferase reporter of 2A StopGo recoding; control for the full effect not named in the record | Potency, µM (highest dose often 57.9 µM), without a hit: at the top dose signal change, negative = less light | 1.2% of 410,000 active; active = well fitted falling curve with a large enough effect; inconclusive = small, poorly fitted or top-dose-only effect; inactive = no such curve, though single readings can be large or run the other way; tested in HEK293T cells; also: % is scaled to controls: 0 for no effect and ±100 for the full control effect; nearly all actives have a fitted effect of over 45% in size; luciferase light after 4 h
# MARV entry inh: Marburg virus entry inhibition; Marburg virus pseudotyped entry inhibition, cell reporter; control for the full effect not named in the record; about a third of the inactives were read at about 46 µM; Potency, µM (titrated, usually from 37.8 µM), inactives show at the top dose activity change, negative = inhibition, actives largely listed as inhibitors; 1.8% of 300,000 active; AID 540276; active = well fitted inhibition curve with a large enough effect; inconclusive = small, poorly fitted or top-dose-only effect, or effect the other way; inactive = flat fitted curve, though single readings scatter; tested in HEK293 cells; about a fifth of its hits are not listed in these tables; also: % is scaled to controls: 0 for no effect and ±100 for the full control effect; luciferase read-out
# NS1 inh: inhibitors of influenza NS1 protein function; AID 2326; 0.4% of 270,000 active; S. cerevisiae slowed by influenza A NS1, growth recovery by OD600; Potency, µM (titrated, usually from 46.1 µM), inactives show at the highest dose activity, positive = more growth; active means well fitted rising curve with a large enough effect; inconclusive means small, poorly fitted or top-dose-only effect; inactive means no such curve, though single readings can be large or run the other way; also: nearly all actives have a fitted effect of over 50% in size
#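 Recovery from NS1-induced slow growth read by OD600 in budding yeast switched to galactose assay medium (pH 6.0, -URA) at 1:100 dilution. Compound 23 nl per well; the matching strain lacking NS1 serves as control.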
# RE007 growth inh: less growth of the S. pombe RE007 Vpr strain | S. pombe RE007 Vpr strain, BacTiter-Glo ATP luminescence, 24 h; control for the full effect not named in the record | Potency, µM (doses to about 92.2 µM), for the others: top-dose activity change, negative = less growth | 0.21% of 360,000 active; active = well fitted falling curve with a large enough effect; inconclusive = small, poorly fitted or top-dose-only effect; inactive = no such curve, though single readings can be large or run the other way;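 also: % is scaled to controls: 0 for no effect and ±100 for the full control effect; nearly all actives have a fitted effect of over 50% in size; the assay follows cell death caused by Vpr and the record does not say whether a fall means rescue or toxicity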
#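 Fission yeast RE007 carrying one integrated HIV-1 vpr copy, seeded at OD 0.01 in PMG+AL medium with 23 nL pinned compound. Grown 24 h at 30 degrees; viability read by BacTiter-Glo luminescence after 5 min.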
# Cruzain inh noDet: blocks cruzain activity in detergent-free assay; P25779; purified cruzain, Z-FR-AMC fluorescence, no detergent; Potency, µM, for the others: max response, negative = inhibition, actives largely listed as inhibitors; 2.3% of 200,000 active; AID 1476;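 also: plate controls were enzyme without inhibitor for no effect and buffer without enzyme for full effect; nearly all actives have a fitted effect of over 40% in size; top concentration of the series not given in the record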
# Target sequence (P25779 123-467 limits assumed): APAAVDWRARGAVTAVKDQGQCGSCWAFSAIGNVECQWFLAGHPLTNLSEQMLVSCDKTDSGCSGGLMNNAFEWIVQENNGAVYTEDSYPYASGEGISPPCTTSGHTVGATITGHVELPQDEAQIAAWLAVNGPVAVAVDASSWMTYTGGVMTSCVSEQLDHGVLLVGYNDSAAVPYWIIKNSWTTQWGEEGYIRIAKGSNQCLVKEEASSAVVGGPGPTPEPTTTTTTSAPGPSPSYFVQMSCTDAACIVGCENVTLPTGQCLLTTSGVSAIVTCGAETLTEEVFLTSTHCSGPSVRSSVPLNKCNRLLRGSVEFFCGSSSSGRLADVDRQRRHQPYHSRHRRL
#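 Purified cruzain at 1.5 nM, pre-incubated 15 min with compound at room temperature in 100 mM sodium acetate pH 5.5, 5 mM DTT, 0.00005% Triton X-100. Reaction started with 2 uM Z-FR-AMC; AMC fluorescence increase over 60 s gives rate.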
# LASV entry inh: blocks Lassa virus binding to or entry into cells; AID 540256; Lassa virus pseudotype entry inhibition, cell reporter; control for the full effect not named in the record; Potency, µM (doses to about 37.9 µM), inactives show at the top dose activity change, negative = inhibition, hits mostly inhibitors; 1.2% of 300,000 active; active means well fitted inhibition curve with a large enough effect; inconclusive means small, poorly fitted or top-dose-only effect, or effect the other way; inactive means flat fitted curve, though single readings scatter; tested in HEK293 cells; also: % is scaled to controls: 0 for no effect and ±100 for the full control effect; nearly all actives have a fitted effect of over 50% in size; luciferase read-out
# Cruzain inh Det: inhibitors of Trypanosoma cruzi cruzain with detergent | P25779 | purified cruzain, Z-FR-AMC fluorescence, 0.01% Triton | Potency, µM, inactives show max response, negative = inhibition, actives largely listed as inhibitors | 0.43% of 200,000 active | AID 1478;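 also: plate controls were neutral wells for no effect and buffer without enzyme for full effect; nearly all actives have a fitted effect of over 40% in size; top concentration of the series not given in the record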
#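 Cysteine protease activity tested under reducing, mildly acidic conditions (100 mM sodium acetate pH 5.5, 5 mM DTT) plus 0.01% Triton X-100. Cruzain 1.5 nM; substrate Z-FR-AMC 2 uM; 15 min compound preincubation at room temperature.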
# * hit, by the source's call; ? = inconclusive; . = not tested or not shown; & = joins results of further samples; [ ] = dose if it differs, or a comment. Unless noted, calls follow the shape of the dose curve; as a rule, active = well fitted curve in the direction sought with a large enough effect; inconclusive = small, poorly fitted or top-dose-only effect, or another doubt; inactive = no such curve, though single readings can be large; an effect the other way counts as inactive or inconclusive. Potency is read from the fitted curve at half-maximal effect.
Compound	SARS PLpro yeast	2A StopGo	MARV entry inh	NS1 inh	RE007 growth inh	Cruzain inh noDet	LASV entry inh	Cruzain inh Det
COc1ccc(-n2c(=O)c3ccc(C(=O)NCc4ccc(C)cc4)cc3n(CC(=O)Nc3ccc(C)cc3)c2=O)cc1	.	-26%	15%[46.1 µM]	.	.	-7%	3%[46.1 µM]	-0.1%
O=C(CSc1nncs1)Nc1cc(S(=O)(=O)N2CCOCC2)ccc1N1CCCC1	4%	-7%	22%	.	-2%	.	15%	.
CC1=NN=C(c2ccc(N)cc2)c2cc3c(cc2C1)OCO3	.	-25%&-5%	?	35µM*	-1%	?	?	2.2%&-2.9%
CCOC(=O)N1CCN(C(=O)CCCCn2c(=S)[nH]c3ccsc3c2=O)CC1	0%	23%	5%[46.1 µM]	.	15%	.	15%	.
CC(C)Cn1c(=O)[nH]c(=O)c2c(C(F)(F)F)cc(-c3ccccc3)nc21	-1%	-29%	.	-3%	12%	.	.	.
COc1ccc(C)cc1NC(=O)CN1CCCC1c1ccc2c(c1)OCCCO2 (stereo unspecified)	-5%	-26%	-11%	.	-15%	.	?	.
O=C(C1CCN(c2nc3ccc(Br)cc3s2)CC1)N1CCC2(CC1)OCCO2	6%	-28%	?	?	-14%	?	-13%	-9.9%
Cc1ccc(OCCN2CCOCC2)cc1C	-4%	46%[activator]	27%	9%	-13%	.	28%	.
CC(=O)Nc1cc2ccc(OC(C)=O)cc2oc1=O	8%	7%	-8%	-5%	-1%	2%	.	-7.9%
Cc1cccc(C(=O)NCCc2nc3ccccc3n2CCC(C)C)c1	.	-27%	?	.	.	20%	-22%[46.1 µM]	13µM*
CN(C)c1ccc(C(CNC(=O)c2ccccc2Br)c2c[nH]c3ccccc23)cc1 (stereo unspecified)	-2%	-3%	-3%	?	15%	25µM*	5%	-3.2%
Cc1ccc(NC(=O)Cc2c(O)c3ccccc3[nH]c2=O)c(C)c1	0%	12%	-1%	2%	11%	.	21%	.
CC(C)Cn1c(SCC(=O)c2ccc(Cl)s2)nnc1-c1ccco1	-8%	2%	-19%	-52%	-3%	3%	?	-11%
COc1ccc(-c2nn(-c3ccccc3)cc2N)cc1	-1%	60%[activator]	?	.	-16%	.	-12%	.
Cc1ccc[n+](CC(=O)/C=C2\N(C)c3ccccc3C2(C)C)c1	10%	?	?	11%	-9%	-16%	2%	-9.8%

# Next compounds follow:
Compound	SARS PLpro yeast	2A StopGo	MARV entry inh	NS1 inh	RE007 growth inh	Cruzain inh noDet	LASV entry inh	Cruzain inh Det
CCOC(=O)c1c(NC(=O)COc2ccc(CC)cc2)sc2c1CCCC2	.	-17%	.	.	.	-9%	0%[46.1 µM]	-0.9%
Cc1ccccc1Cn1cnc2c(cnn2C(C)(C)C)c1=O	-1%	0%	-5%	-36%	2%	9%	?	1.5%
CCCCC(=O)NC(=S)NNC(=O)c1ccc(OC)cc1	0%	-28%	?	-46%	?	.	?	.
O=C(O)CNS(=O)(=O)c1ccc(C2CCCCC2)cc1	2%	-6%	-4%[46.1 µM]	.	-7%	.	-6%	.
CN1CCN(C(=O)c2ccc(C(C)(C)C)cc2)CC1	3%	0%	13%	-1%	3%	6%	?	3.1%
CCCSc1nc(O)c(C2OC(=O)c3c2ccc(OC)c3OC)c(=O)n1-c1ccccc1 (stereo unspecified)	3%	-17%	7%	26%	6%	-7%	-7%	2.4%
CCOC(=O)c1ccc(NC(=O)Cn2nnc(-c3ccc(F)cc3)n2)cc1	1%	-17%	?	-1%	22%	-20%	-14%	-2.1%
COc1cc(C(=O)N2CCC(C(=O)Nc3cccc(C(C)=O)c3)CC2)cc(OC)c1OC	15%	-6%	0%	-5%	10%	17%	5%	13%
Cc1nc(NC(=O)c2ccccc2)sc1Cc1ccc2c(c1)OCO2	9%	21%	?	1%	-6%	?	-13%	-4.3%
N#Cc1ccc(C23CC4(C2)[C@H](CN(Cc2ccc(C(F)(F)F)cc2)[C@@H]4c2ccccc2)C3c2ccc(Cl)nc2)cc1 (stereo partly specified)	-2%	.	.	0%	.	10%	.	0.4%
COc1ccc(N2CCN(S(=O)(=O)CCNC(=O)c3ccc(C(F)(F)F)cc3)CC2)cc1	.	17%	.	.	.	-3%	16%[46.1 µM]	0.5%
O=C(NC1CCCCCC1)C(Cc1ccccc1)n1cccc1 (stereo unspecified)	-1%	-14%	-22%	-2%	-1%	.	-15%	.
COc1ccc(-n2ncc3c(SCC(=O)N4CCN(c5ccccc5OC)CC4)ncnc32)cc1	14%	-10%	?	1%	5%	?	?	-3.8%
CCN(CC)CCCNC(CC(=O)Nc1cccc([N+](=O)[O-])c1)C(=O)O (stereo unspecified)	4%	-11%	7%	-4%	1%	-4%	2%	-2.4%
Cc1cc(C(=O)N2CCCC(CCC(=O)N3CCN(c4ccccn4)CC3)C2)c(C)o1 (stereo unspecified)	0%	-26%	-13%[46.1 µM]	-5%	4%	.	-13%[46.1 µM]	.

# The list goes on.
Compound	SARS PLpro yeast	2A StopGo	MARV entry inh	NS1 inh	RE007 growth inh	Cruzain inh noDet	LASV entry inh	Cruzain inh Det
COC(=O)c1sccc1Oc1ccc(Cl)cc1N1C(=O)CCC1=O	0%	-5%	-9%	3%	-17%	.	-3%	.
Cc1sc2nc(SCC(=O)N(C)c3ccccc3)n(C)c(=O)c2c1C	5%	?	?	-5%	8%	.	-2%	.
Cc1cc(C)nc(NC(N)=NC(C)c2ccccc2)n1 (stereo unspecified)	0%	?	?	-9%	-5%	.	1%	.
COCCNC(=O)C(=O)N/N=C(\C)CC(=O)Nc1cccnc1	0%	-13%	-15%[46.1 µM]	2%	-6%	.	-10%	.
CCOc1ccc(NC(=O)Cn2nnc(-c3ccccc3NC(=O)CC)n2)cc1	5%	-16%	?	4%	6%	-6%	-26%	-0.1%
CCc1ccc(N2C(=O)NC(=O)/C(=C\C=C\c3ccco3)C2=O)cc1	0%	25µM*	.	11µM*	23%	.	.	.
CC1(C)Oc2ccc3ccc(=O)oc3c2/C(=C/Nc2cccc(O)c2)C1=O	-7%	-27%	?	.	11%	.	?	.
CC(=O)Nc1ccc(S(=O)(=O)NCc2ccc(C(=O)NC(C)c3ccccc3)cc2)cc1 (stereo unspecified)	9%	.	-21%	-2%	0%	4%	10%	-0.2%
O=C(O)CCC(=O)NNC(=O)c1cccc(Br)c1	-9%	-7%	1%	4%	-10%	2%	4%	-0.4%
COC(=O)c1cc2sc(Cl)cc2n1Cc1nc(-c2ccc(OC)cc2)oc1C	.	27%	-9%[46.1 µM]	.	.	6%	.	-1.5%
COc1ccc(Cl)cc1-c1n[nH]c(=S)o1	-4%	0%	-4%	-10%	19%	-17%	23%	-3.2%
Cc1nn(-c2ccccc2)c(Cl)c1CN(C(=O)CCl)c1cccc2ccccc12	-46%	28µM*	?	-3%	0%	-5%	?	-5.2%
CCOc1cc(C)c(S(=O)(=O)NC2CC(C)(C)NC(C)(C)C2)cc1C	2%	15%	?	.	-1%	.	?	.
Cc1ccc2c(c1)N(CCC(=O)NCCCN1CCCC1)C(=O)CO2	2%	-2%	-19%[46.1 µM]	1%	-3%	.	2%[46.1 µM]	.
Clc1ccccc1-c1nnc(-c2cccs2)o1	-5%	4%	?	.	?	.	?	.

# Going on with the list:
Compound	SARS PLpro yeast	2A StopGo	MARV entry inh	NS1 inh	RE007 growth inh	Cruzain inh noDet	LASV entry inh	Cruzain inh Det
COc1ccc(C(=O)C(CCCCC(CN(C)C)C(=O)c2ccc(OC)cc2)CN(C)C)cc1 (stereo unspecified)	-4%	-9%	?	8%	4%	-8%	?	-3.8%
COc1ccc(NC(=O)CN2C(=O)COc3ccc(C)cc32)c(OC)c1	4%	-14%	-29%	0%	15%	.	?	.
O=C(NCc1ccco1)C(c1ccco1)N(CCc1ccccc1)C(=O)Cn1nnc2ccccc21 (stereo unspecified)	-5%	-3%	0%&-22%	-26%	13%	-6%	-9%	4.2%
CCCS(=O)(=O)N1CCN(C(=O)COc2ccccc2)CC1	6%	28%	1%	5%	-2%	-4%	2%	1.0%
Cc1ccc(CNC(=O)C2CCCN2C(=O)NCc2ccccc2)cc1 (stereo unspecified)	3%	12%	8%	-8%	26%	1%	-1%	4.3%
Cc1ccccc1NC(=NCCCN1CC1)Nc1ccccc1C	.	-10%	2.2µM*	.	7%	.	13µM*	.
COc1ccc(CC(=O)OCc2nnc(-c3ccccc3)o2)cc1	0%	8%	?	.	-8%	.	21%[46.1 µM]	.
CCCN1C(=O)c2oc3cc(C)cc(C)c3c(=O)c2C1c1ccc(F)cc1 (stereo unspecified)	.	-3%	-7%[46.1 µM]	.	.	-1%	5%[46.1 µM]	0.7%
COc1ccccc1CCC(=O)N(CCC1=CCCCC1)c1c(N)n(Cc2ccccc2)c(=O)[nH]c1=O	2%	-3%	?	.	11%	.	-15%	.
COCCN(C(=O)c1ccco1)c1nnc(-c2ccc(F)cc2)s1	-2%	42%[activator]	?	3%	15%	.	?	.
COc1ccccc1N1CCN(CCN2C(=O)C3CCCN3C2=O)CC1 (stereo unspecified)	4%	-13%	-1%	1%	4%	.	3%	.
Cc1cc(NS(=O)(=O)c2ccc(NC(=O)c3c(F)c(F)c(F)c(F)c3F)cc2)nc(C)n1	2%	38%[activator]	13%	9%	-4%	.	0%	.
Cc1nc2ccc(S(=O)(=O)NC(CC(C)C)C(=O)N3CCN(c4ccc(F)cc4)CC3)cc2s1 (stereo unspecified)	.	?	-15%[46.1 µM]	.	.	21%	-25%[46.1 µM]	-2.3%
COc1cccc(NC(=O)CCNS(=O)(=O)c2ccc(Br)s2)c1	1%	-5%&-4%	-11%&1%[46.1 µM]	-11%	14%	-14%	17%	-3.9%
O=C(c1ccc(CN2CCc3ccccc3C2)cc1)N1CCc2ccccc2C1	3%	?	?	-2%	-1%	6%	-7%	2.3%
O=C(O)c1ccc(NC(=O)N2C[C@H]3C[C@@H](C2)c2cccc(=O)n2C3)cc1	-2%	-9%&-18%	.	3%	-12%	-5%	.	-0.6%
CCOC(=O)C(C)NC(=O)c1cc2c(=O)[nH]c3ccc(C)cc3c2s1 (stereo unspecified)	.	-4%	?	.	.	?	.	3.5%
